Screening results from PubChem.
MT1-MMP act inh: blocks activation of human MT1-MMP. HT1080 RFP-PRO-GFP cells, GFP/RFP ratio fluorescence, overnight; percent of plate control window, DMSO zero. AID 651647. GFP/RFP ratio change, % at 20 µM. actives 0.061% (n = 360,000);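 active = GFP/RFP ratio change of at least 30% with cell ATP level not reduced by more than half and red fluorescence within 50% of control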; also: strong numbers were not always called active
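Assay system: HT1080 RFP-PRO-GFP cells. Benchmarks: DMSO vehicle wells and RFP-L50D-GFP reporter cell wells. Times: overnight cell settling, then overnight compound exposure, 37 °C, 5% CO2. Compound: 20 µM single dose, 1% DMSO. Read-out basis: GFP/RFP fluorescence ratio.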
Rce1 inh: inhibitors of yeast Ras-converting enzyme; yeast membranes, quenched prenylated peptide cleavage fluorescence; actives 0.27% (n = 290,000); calls only; Q03530; AID 2563;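 active = fall in fluorescence gain of 50% or more versus controls, with final raw signal at or below 3038400; inconclusive = same 50% fall but final raw signal above 3038400; inactive = fall in fluorescence gain under 50%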;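 also: plate controls were neutral control wells for no effect and wells lacking membranes for full effect; tested at 10 µM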
Target sequence (Q03530 whole entry, looked up): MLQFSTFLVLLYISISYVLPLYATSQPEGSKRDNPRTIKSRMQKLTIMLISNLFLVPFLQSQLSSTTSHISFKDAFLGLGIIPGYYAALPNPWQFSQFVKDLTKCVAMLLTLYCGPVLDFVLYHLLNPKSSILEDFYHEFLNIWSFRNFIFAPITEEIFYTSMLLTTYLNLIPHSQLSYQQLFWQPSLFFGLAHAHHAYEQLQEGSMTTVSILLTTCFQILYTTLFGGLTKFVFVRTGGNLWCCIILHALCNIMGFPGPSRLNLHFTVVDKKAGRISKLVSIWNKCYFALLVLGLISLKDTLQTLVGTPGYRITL
eIF4H FP inh: inhibitors of RNA binding by human eIF4H. Q15056. AID 2012. actives 0.94% (n = 290,000). eIF4H fluorescence polarization binding assay. inhibition, % at 35 µM;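 active = 50% or more with normal probe brightness, or confirmed in later tests; inconclusive = above 50% with abnormal brightness, or retests that disagree; inactive = below 50% or failed in later tests; about a fifth of its hits are not listed in these tables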;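 also: calls also rest on retests at 20 µM and on dose response follow-up; 0% = protein and probe with vehicle and 100% = probe without protein; strong numbers were not always called active; many hits fall short of the cut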
CSC inhib: cancer stem cell inhibition; cancer stem cell-like cells viability, luminescence; inhibition, % at 7.5 µM; actives 1.1% (n = 300,000); AID 2717;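 active = mean at 75% or more and at least half the replicates too; inconclusive = mean and replicates disagree; tested in HMLE shEcad cells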;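 also: 0% = median of negative and 100% = median of positive control wells; the first replicate is given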
HIV Env fusion: HIV envelope-mediated fusion inhibition; inhibition, % at 12.3 µM; HeLa-JRFL Env/CEM21 cell fusion, luciferase; actives 1.1% (n = 360,000);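 active = mean replicate inhibition score of at least 50 and every replicate individually at or above 50; inconclusive = only one of the two criteria met; inactive = mean below 50 and not all replicates reaching 50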;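 also: 0% = plate neutral controls and 100% = maraviroc near 300 nM; one replicate is shown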
PABP FP inh: blocks human PABP binding to poly(A) RNA; fluorescence polarization; inhibition, % at 35 µM; actives 1% (n = 290,000);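 active = 50% or more with normal probe brightness, or confirmed in later tests; inconclusive = above 50% with abnormal brightness, or retests that disagree; inactive = below 50% or failed in later tests; about a fifth of its hits are not listed in these tables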;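 also: calls also rest on retests at 20 µM and on dose response follow-up; controls were probe without protein and protein plus probe with vehicle; some compounds called inactive have numbers as strong as hits; many hits fall short of the cut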
Target sequence (P11940 whole entry, looked up): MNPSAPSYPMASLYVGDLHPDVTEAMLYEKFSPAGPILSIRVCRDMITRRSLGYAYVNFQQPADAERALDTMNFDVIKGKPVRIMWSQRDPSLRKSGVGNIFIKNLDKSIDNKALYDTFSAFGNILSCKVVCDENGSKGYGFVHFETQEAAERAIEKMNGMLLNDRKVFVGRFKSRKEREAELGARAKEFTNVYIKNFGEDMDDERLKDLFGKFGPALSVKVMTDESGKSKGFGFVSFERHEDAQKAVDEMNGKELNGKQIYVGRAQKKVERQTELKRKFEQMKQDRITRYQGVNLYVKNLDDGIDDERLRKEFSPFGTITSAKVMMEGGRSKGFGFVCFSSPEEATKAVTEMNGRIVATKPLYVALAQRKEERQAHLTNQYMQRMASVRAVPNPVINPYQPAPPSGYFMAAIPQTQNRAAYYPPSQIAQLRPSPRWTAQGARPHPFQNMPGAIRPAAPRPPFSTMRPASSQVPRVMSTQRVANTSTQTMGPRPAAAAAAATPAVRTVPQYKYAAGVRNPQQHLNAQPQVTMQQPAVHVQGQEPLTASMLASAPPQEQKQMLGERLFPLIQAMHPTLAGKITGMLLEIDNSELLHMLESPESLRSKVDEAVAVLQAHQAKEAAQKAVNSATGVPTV
Yeast UUG start: modulators of start codon recognition fidelity in yeast. S. cerevisiae UUG-firefly luciferase reporter, luminescence/redox ratio. activity score, % at 18.7 µM. actives 0.13% (n = 350,000);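 active = replicate mean at a twofold rise or more, about +100% in these data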;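 also: firefly luciferase made from a UUG start codon reports start codon fidelity; reporter light over untreated wells divided by growth signal over untreated wells; some hits fall short of that in this replicate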
eIF4H FP inh retest: also measured in eIF4H FP inh; calls as there; inhibition, %; compound at 20 µM; confirmation average;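 mean of two retest wells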
PABP FP inh retest: further read-out of PABP FP inh, marked with its call; inhibition, %; compound at 20 µM; confirmation repeats;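 mean of two retest wells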
MT1-MMP act inh RFP: recorded beside MT1-MMP act inh, whose call it bears; RFP signal change, %; measured here: RFP expression control read;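 0 = vehicle wells; hits needed this value within 50% of zero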
Numbers without * were called inactive; i = inactive; ? = inconclusive; . = no result given; & = joins results of further samples.

SMILES | MT1-MMP act inh | MT1-MMP act inh RFP | Rce1 inh | eIF4H FP inh | CSC inhib | HIV Env fusion | PABP FP inh | Yeast UUG start | others
CCOCCCn1c(SCc2ccccc2)nnc1-c1ccncc1 | 0 | 1 | i | -17 | 1 | 18 | -2 | -9
Cc1nn(-c2ccc(F)cc2)c(Cl)c1/C=N/NC(=O)c1cccs1 | 4 | 4 | i | -17 | -5 | -79 | -27 | .
Cc1ccc(OCCC(=O)OCC(=O)c2ccc3c(c2)NC(=O)CO3)cc1 | -6 | -1 | . | . | 8 | . | . | 6
O=C1C(Cc2ccc(O)cc2)NC(=S)N1C1CCCCC1 (stereo not drawn) | -2 | 0 | i | -4 | 12 | 44 | -2 | -21
COc1ccc(CCN2C(=O)CC(NNC(=O)c3ccccc3Br)C2=O)cc1OC (stereo not drawn) | -4 | -1 | i | 11 | -10 | 12 | -4 | -6
CN(C)S(=O)(=O)N1CCN(S(=O)(=O)c2ccc3ccccc3c2)CC1 | 6 | -7 | i | 9 | -4 | . | 0 | -10
Cn1ccnc1SCC(=O)Nc1ccc(Oc2ccccc2)cc1 | 1 | -4 | i | 1 | 1 | . | 0 | -13
COc1ccc(CCN2CC(C(=O)NCCCc3ccncc3)CCC2=O)cc1 (stereo not drawn) | 1 | -1 | . | . | . | ? | . | -1
Cc1nc2scc(-c3ccccc3)c2c(=O)n1N | 4 | 7 | i | 2 | . | . | -1 | -19
C=C1c2cc(OC)ccc2NC(=O)N1CC | 4 | 5 | i | -2 | -2 | i | 2 | -18

The closing 5 compounds of the section before come first, to join the parts.
SMILES | MT1-MMP act inh | MT1-MMP act inh RFP | Rce1 inh | eIF4H FP inh | CSC inhib | HIV Env fusion | PABP FP inh | Yeast UUG start | others
CN(C)S(=O)(=O)N1CCN(S(=O)(=O)c2ccc3ccccc3c2)CC1 | 6 | -7 | i | 9 | -4 | . | 0 | -10
Cn1ccnc1SCC(=O)Nc1ccc(Oc2ccccc2)cc1 | 1 | -4 | i | 1 | 1 | . | 0 | -13
COc1ccc(CCN2CC(C(=O)NCCCc3ccncc3)CCC2=O)cc1 (stereo not drawn) | 1 | -1 | . | . | . | ? | . | -1
Cc1nc2scc(-c3ccccc3)c2c(=O)n1N | 4 | 7 | i | 2 | . | . | -1 | -19
C=C1c2cc(OC)ccc2NC(=O)N1CC | 4 | 5 | i | -2 | -2 | i | 2 | -18
O=C(NCc1ccco1)c1cccc(-c2ccc3nccn3c2)c1 | 3 | -3 | . | . | . | 10 | . | -10
O=C(COC(=O)c1ccc(O)cc1)Nc1ccc(S(=O)(=O)N2CCOCC2)cc1 | 3 | 2 | . | . | -22 | . | . | -5
Fc1ccc(OCCCCCN2CCCC2)cc1 | -1 | 1 | i | -8 | 2 | . | -3 | -11
COc1ccccc1C(=O)NCC(=O)OCC(=O)Nc1nnc(-c2ccccc2)o1 | 4 | 3 | . | . | -14 | . | . | -17
Cc1cccc(N(CC(=O)NCc2ccccc2)C(=O)CCC(=O)Nc2nccs2)c1 | -3 | -6 | i | 0 | -11 | 2 | 5 | -15
CCOc1ccc2[nH]c(C)c(CN(C)C)c(=O)c2c1 | 1 | 3 | i | 1 | -9 | . | -16 | 9
COc1ccccc1NS(=O)(=O)c1cc(C(=O)NC2CC(C)(C)NC(C)(C)C2)ccc1Cl | 1 | 2 | . | . | . | 0 | . | -13
CN(C)/C=C(\C(=O)c1ccc(F)cc1F)c1nnnn1-c1ccccc1 | 0 | 1 | i | 24 | . | 3 | -13 | .
Cc1cc(C)c(NC(=O)CNC(=O)CN(C)Cc2ccc(Br)s2)c(C)c1 | -3 | 0 | . | . | . | 13 | . | -18
NC(=O)C1(N2CCCCC2)CCN(C(=O)CSc2nc3ccccc3[nH]2)CC1 | -3 | 4 | . | -7 | -6 | . | 8 | -21
Cc1ccc(N2C(=O)C3ON(c4ccccc4)C(c4ccncc4)C3C2=O)c(C)c1 (stereo not drawn) | -2 | 2 | i | 4 | -5 | -11 | 2 | -18
O=C(NC(O)C(=O)c1ccccc1)c1ccc(F)cc1 (stereo not drawn) | 0 | 3 | i | -8 | -1 | -13 | 3 | -9
Cc1cc(NS(=O)(=O)c2c(C)c(C)cc(C)c2C)no1 | -4 | 3 | i | 2 | 3 | -1 | 8 | -5
CN1C(=O)C2(c3ccccc31)C1CCCC=C1C(C#N)=C(N)C2(C#N)C#N (stereo not drawn) | -18 | 11 | . | 44* | -11 | . | 66* | -6 | eIF4H FP inh retest=89*;PABP FP inh retest=63*
O=C(CC1C(=O)NCCN1C(=O)c1ccc([N+](=O)[O-])cc1)Nc1cccc(Cl)c1 (stereo not drawn) | 0 | 2 | i | -11 | -9 | -8 | -13 | -11
O=C(NCC1CCCO1)c1ccc(CS(=O)(=O)c2ccc(Br)cc2)o1 (stereo not drawn) | 2 | 2 | i | 0 | 2 | -7 | -2 | 2
CCC(=O)NC(=S)Nc1cccc(NC(=O)CC)c1 | 4 | 1 | i | 2 | . | . | 15 | -27
Cc1ccc(N(CN2C(=O)C3CC=CCC3C2=O)C(=O)c2ccco2)cc1Cl (stereo not drawn) | -9 | 3 | i | 1 | -5 | . | -8 | -11
CCn1c(SCCC(=O)Nc2ccccc2)nnc1-c1ccc(OC)cc1 | 4 | -4 | i | -10 | -6 | . | -8 | .
COc1ccc(/C=C2\CCCc3c2nc2ccccc2c3C(=O)O)cc1OC | . | . | i | ? | -3 | . | ? | .

The closing 2 records of the section before lead into the next:
SMILES | MT1-MMP act inh | MT1-MMP act inh RFP | Rce1 inh | eIF4H FP inh | CSC inhib | HIV Env fusion | PABP FP inh | Yeast UUG start | others
CCn1c(SCCC(=O)Nc2ccccc2)nnc1-c1ccc(OC)cc1 | 4 | -4 | i | -10 | -6 | . | -8 | .
COc1ccc(/C=C2\CCCc3c2nc2ccccc2c3C(=O)O)cc1OC | . | . | i | ? | -3 | . | ? | .
COc1cc(OC)c2c(-c3ccccc3)cc(=O)oc2c1C(CCN1CCN(c2ccccc2)CC1)c1ccc(N(C)C)cc1 (stereo not drawn) | -2 | -4 | i | 6 | -6 | -1 | -22 | -13
CC(=O)N1CCc2cc(S(=O)(=O)NCCC(=O)Nc3cccc(C)c3C)ccc21 | 0 | -4 | i | -5 | . | -65 | -8 | -19
CCOC(=O)NC(=O)c1cn(Nc2ncc(C(F)(F)F)cc2Cl)c(=O)[nH]c1=O | 2 | -2 | i | 6 | -7 | 1 | 3 | .
CCC(=O)Nc1nnc(S(=O)(=O)N(CC(C)C)c2ccccc2)s1 | 3 | 0 | i | 1 | -9 | -6 | 10 | -9
O=C(c1ccco1)N1CCN(C(=O)C23CC4CC(CC(C4)C2)C3)CC1 | 2 | 4 | i | 2 | -7 | 7 | 10 | -9
Cn1c(SCC(=O)c2ccc(F)cc2)ncc(C(=O)Nc2ccccc2)c1=O | 1 | 4 | i | . | -9 | -44 | . | -24
COCCC(=O)N1CCOCC1c1cc(C(=O)NCc2ccccc2)no1 (stereo not drawn) | -2 | 4 | . | . | . | -16 | . | 0
COC(=O)c1ccc(Sc2ccc(F)cc2)c(N)c1 | -1 | 0 | i | 5 | -2 | . | 4 | .
O=C(OCCCCN1C(=O)c2ccccc2C1=O)c1ccc(S(=O)(=O)N2CCCC2)cc1 | 1 | 3 | i | -13 | -12 | . | 1 | -9
CCOc1ccc(S(=O)(=O)N2CCC(C(=O)N3CCN(c4ccccc4)CC3)CC2)cc1 | . | . | i | 13 | -1 | 39 | 10 | -8
COc1cc(NC(=O)Cc2ccc(F)cc2)cc(OC)c1OC | 3 | -3 | i | -4 | -14 | -10 | -10 | .
COc1cc(-c2noc(C)c2/C=C/c2ccc(OC(C)=O)cc2)cc(OC)c1OC | 25 | 4 | i | -3 | 109* | . | 1 | -17
Cc1cccc(N/C=C/C(=C(C#N)C#N)N(C)C)c1 | -4 | -1 | i | 3 | -14 | . | -8 | .
CCOc1cc(S(=O)(=O)N(CC)CC)c(OCC)cc1-n1cnnn1 | 3 | 0 | i | -11 | . | . | -4 | -8
CC(=O)Nc1cccc(C(=O)OCC(=O)c2ccc(S(=O)(=O)N3CCCCC3)cc2)c1 | -2 | -4 | i | . | -7 | -2 | . | -3
CC(=O)Nc1sc(NC(=O)c2ccco2)nc1-c1cccs1 | 4 | 7 | i | 7 | -9 | -10 | -8 | -25
CCOCCSc1nnc2nc(C)cc(C)n12 | 4 | 7 | i | 1 | -7 | . | -3 | -1
CCOc1ccc(NC(=O)Nc2ccc3c(c2)nnn3C)cc1 | 11 | 5 | i | -10 | -4 | . | -18 | 12
COc1ccccc1NC(=O)CSc1nccn1Cc1ccc(F)cc1 | 2 | 2 | i | 7 | -34 | -4 | 6 | -12
Cc1cccc(NC(=O)CSc2nnc(C)n2Cc2ccccc2)c1 | 3 | 3 | i | -7 | -11 | -34 | 3 | 6
O=C(O)c1ccccc1CSc1nc2ccccc2n1Cc1ccccc1C(=O)O | 1 | 4 | i | -7 | -1 | 12 | -1 | .
CC(C)(C)OC(=O)N1CCC(NC(=O)c2[nH]cnc2C(=O)N[C@@H](Cc2ccccc2)C(=O)OCc2ccccc2)CC1 | 4 | 3 | i | 15 | 57 | -8 | 9 | -9
CC(=O)N(C)C[C@@H]1Oc2ncc(Br)cc2C(=O)N([C@H](C)CO)C[C@@H]1C | -1 | 8 | . | . | . | -102 | . | -2&-4
Cn1nc(-c2ccc(C(=O)NCCO)cc2)c2ccccc2c1=O | -1 | 0 | i | 5 | 11 | 9 | 5 | .
CCOC(=O)c1c(C)[nH]c(C(C)=O)c1C | 4 | 6 | i | -3 | -13 | i | 5 | -7
CC(C)(C)NC(=O)C1CC(=O)OC1(C)C (stereo not drawn) | 1 | 3 | i | -14 | -5 | . | -5 | .
Cc1ccc(S(=O)(=O)N(CC(O)CN2CCCCC2)c2ccccc2)cc1 (stereo not drawn) | 0 | 5 | i | -11 | -11 | -3 | -4 | -14
C=C(C)c1cccc(C(C)(C)NC(=O)N2CCCC2)c1 | 6 | 5 | i | -1 | -8 | . | 9 | 6
CC(NC(=O)c1ccc(F)cc1Cl)C1CC2CCC1C2 (stereo not drawn) | 3 | 5 | i | 0 | -3 | 10 | -8 | 0
CCCCCCSc1ccc([C@@H]2[C@@H]3C(=O)N(C)C(=O)[C@@H]3[C@]3(C(=O)OC)CCCCN23)cc1OC | 1 | -6 | i | . | 105* | 7 | . | 3
CCOC(=O)c1oc2ccccc2c1NC(=O)c1ccccc1OC | 2 | 0 | i | -7 | 13 | . | 0 | .
CCc1cc(=O)[nH]c(SCc2ccc(C)cc2)n1 | 2 | 6 | i | 0 | -8 | 10 | -10 | -23
Cc1noc(NC(=O)c2ccc(Cl)c(Cl)c2)c1Cl | -1 | -10 | i | -9 | 3 | -12 | -3 | .
